# Screening results deposited in PubChem by Broad Institute.
# Vaccinia stage: blocks a specific stage of Vaccinia orthopoxvirus infection, primary screen, cell-based, single point; Vaccinia-infected cells, mCherry/Venus stage reporter fluorescence; active compounds read low; some inactives read as strong as hits; activity change (mCherry), % (no concentration beside the values); actives 0.01% (n = 89,000); AID 1053133, 2014;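 active = mCherry past -33% and 40 or more points under the early reporter, replicates agreeing; inconclusive = past -33% without that gap or agreement; tested in A549 cells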;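 note: scaled between vehicle wells and reference inhibitor wells; 23 nL library stock went into each well; one replicate is shown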
# Vaccinia stage Venus: second read-out of Vaccinia stage, no call of its own (marks repeat the call); activity change (Venus), %; measured here: Venus reporter, other viral stage;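 negative = less Venus signal; first of two replicates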
# Active calls of the source: *; ? = inconclusive; . = no result given. The list is partial; count on the stated rates, not on these rows.
SMILES,Vaccinia stage,Vaccinia stage Venus
COc1cccc(C#Cc2cnc3c(c2)C(=O)N([C@@H](C)CO)C[C@H](C)[C@@H](CN(C)C(C)=O)O3)c1,9.1,8.8
Cc1noc(C)c1NC(=O)Nc1cccc2c1O[C@H](CN(C)C(=O)NC1CCCCC1)[C@@H](C)CN([C@H](C)CO)C2=O,9.3,9.6
COCC(=O)Nc1ccc2c(c1)C(=O)N(C)C[C@@H](OC)[C@@H](C)CN(Cc1ccccc1OC)[C@@H](C)CO2,-4.5,-0.5
CCCNC(=O)N(C)C[C@H]1Oc2ncc(C3=CCCCC3)cc2C(=O)N([C@H](C)CO)C[C@H]1C,-9.2,-14.3
C[C@@H]1CN([C@H](C)CO)C(=O)c2ccccc2-c2ccccc2CO[C@H]1CN(C)S(=O)(=O)c1ccc(C(F)(F)F)cc1,-30.9,-21.0
C[C@@H]1CN([C@@H](C)CO)C(=O)c2cccc(N(C)C)c2O[C@H]1CN(C)Cc1ccc(Cl)c(Cl)c1,?,.
O=C(Nc1cccc(F)c1)N1C[C@@H]2[C@H](c3ccccc31)[C@@H](CO)N2C(=O)c1ccccc1F,9.5,6.2
O=C(C[C@H]1CC[C@@H]2[C@H](COC[C@@H](O)CN2C(=O)C2CC2)O1)NCc1ccncc1,5.7,2.7
Cc1ccc(S(=O)(=O)N[C@H]2C=C[C@@H](CC(=O)NCCc3ccncc3)O[C@@H]2CO)cc1,3.0,-0.7
C[C@H]1CCCCO[C@@H](CN(C)Cc2ccc(C(F)(F)F)cc2)[C@@H](C)CN([C@@H](C)CO)C(=O)c2cc(NC(=O)CCCN(C)C)ccc2O1,?,.
COc1ccc2c3c([nH]c2c1)[C@H](CO)N(C(=O)Nc1ccc(F)cc1)CC31CCN(C(=O)Nc2c(C)noc2C)CC1,15.4,3.3
COc1ccc(NC(=O)N[C@H]2CC[C@@H](CCn3cc(C4(O)CCCC4)nn3)O[C@H]2CO)cc1,-0.6,-2.0
CCCC(=O)Nc1ccc2c(c1)OC[C@H](C)N(Cc1cncnc1)C[C@@H](C)[C@@H](OC)CN(C)C2=O,7.5,5.1
CC(C)[C@@H](C)NC(=O)N(C)C[C@@H]1OCc2ccccc2-c2ccccc2C(=O)N([C@H](C)CO)C[C@H]1C,11.7,2.6
CCNC(=O)[C@@H]1[C@@H](CO)[C@@H]2Cn3c(ccc(-c4ccccc4F)c3=O)[C@H]1N2CCC(F)(F)F,0.9,4.8
O=C(C[C@@H]1CC[C@@H](NC(=O)c2ccc(F)cc2)[C@@H](CO)O1)NCCc1ccccc1,-2.7,-9.8
CNC[C@@H]1OCCCC[C@@H](C)Oc2ccc(NS(=O)(=O)c3ccc(Cl)cc3)cc2C(=O)N([C@H](C)CO)C[C@@H]1C,-1.6,3.2
O=C(NCC[C@@H]1CC[C@H](NC(=O)C2CCCCC2)[C@@H](CO)O1)c1ccc(F)cc1,2.0,8.8
C[C@H]1CCCCO[C@@H](CN(C)C(=O)CCC(F)(F)F)[C@@H](C)CN([C@@H](C)CO)C(=O)c2cc(NS(=O)(=O)c3ccccc3)ccc2O1,-0.7,-0.2
C[C@@H]1CN([C@H](C)CO)C(=O)c2cc(C#CC3(O)CCCC3)cnc2O[C@H]1CN(C)C(=O)C1CCOCC1,31.8,12.1

# Shown tab-delimited: entries from further up
SMILES	Vaccinia stage	Vaccinia stage Venus
C[C@@H]1CN([C@H](C)CO)C(=O)c2cc(C#CC3(O)CCCC3)cnc2O[C@H]1CN(C)C(=O)C1CCOCC1	31.8	12.1
CC(C)[C@@H](C)NC(=O)N(C)C[C@@H]1OCc2ccccc2-c2ccccc2C(=O)N([C@H](C)CO)C[C@H]1C	11.7	2.6

# (next part)
SMILES,Vaccinia stage,Vaccinia stage Venus
O=C(N[C@@H]1CC[C@@H](CC(=O)N2CCN(c3ccccc3)CC2)O[C@H]1CO)c1ccncc1,4.8,-0.7
Cc1ccc(S(=O)(=O)N2C[C@H](O)COC[C@H]3O[C@@H](CC(=O)N[C@@H]4CCN(Cc5ccccc5)C4)CC[C@@H]32)cc1,-20.1,-17.0
COc1ccc(S(=O)(=O)N(C)C[C@@H]2Oc3ccc(NS(=O)(=O)c4ccccc4)cc3CC(=O)N([C@H](C)CO)C[C@@H]2C)cc1,3.7,5.1
CCC(=O)N1CCC2(CC1)CN(Cc1ccc(Cl)cc1)[C@H](CO)c1[nH]c3cc(OC)ccc3c12,1.4,-5.7
C[C@H]1CN([C@@H](C)CO)C(=O)c2cc(NC(=O)Nc3ccc(F)cc3)ccc2O[C@H]1CN(C)Cc1ccc2c(c1)OCO2,-12.2,-12.0
O=S(=O)(c1ccc(F)cc1)N1CCCCN2[C@H](CO)[C@@H](c3ccc(-c4cncnc4)cc3)[C@@H]2C1,-5.7,-6.3
COc1ccc(CN(C)C[C@H]2OCCCC[C@H](C)Oc3ccc(NC(=O)c4ccncc4)cc3C(=O)N([C@@H](C)CO)C[C@H]2C)cc1,-5.2,0.7
Cc1noc(C)c1NC(=O)Nc1cccc2c1O[C@H](CN(C)Cc1ccc(-c3ccccc3)cc1)[C@@H](C)CN([C@H](C)CO)C2=O,?,.
CC(C)NC(=O)N(C)C[C@@H]1Oc2ccc(NC(=O)Nc3ccc(F)cc3)cc2C(=O)N([C@H](C)CO)C[C@@H]1C,0.2,0.5
Cc1ccccc1S(=O)(=O)N[C@H]1CC[C@@H](CCn2cc(-c3ccccc3)nn2)O[C@H]1CO,-18.4,-8.7
C[C@@H]1CCCCO[C@@H](CN(C)C(=O)CCC(F)(F)F)[C@H](C)CN([C@@H](C)CO)C(=O)c2cc(NS(=O)(=O)c3ccc(Cl)cc3)ccc2O1,-27.0,-28.4
O=C(Cc1ccccc1)N1C[C@H]2[C@@H](c3ccccc31)[C@H](CO)N2C(=O)C1CCCCC1,6.8,6.0
Cc1noc(C)c1NC(=O)N(C)C[C@@H]1OCCCC[C@@H](C)Oc2ccc(NS(=O)(=O)c3ccccc3)cc2C(=O)N([C@H](C)CO)C[C@@H]1C,16.0,4.2
C[C@H](CO)N1C[C@H](C)[C@H](CN(C)S(=O)(=O)c2ccccc2)Oc2ncc(C#Cc3ccc(C(F)(F)F)cc3)cc2C1=O,-11.6,-2.2
C[C@H](O)C#Cc1ccc2c(c1)O[C@@H](CN(C)Cc1ccc(-c3ccccc3)cc1)[C@H](C)CN([C@@H](C)CO)S2(=O)=O,?,.
C/C=C/c1ccc([C@H]2[C@@H](CO)N(C(=O)CC)[C@H]2CN(C)C(=O)NC(C)C)cc1,-1.8,0.9
Cc1noc(C)c1S(=O)(=O)Nc1ccc2c(c1)C(=O)N([C@@H](C)CO)C[C@@H](C)[C@H](CN(C)C(=O)c1ccccc1)OCCCC[C@H](C)O2,36.7,7.7
COc1ccc(CN(C)C[C@@H]2OCCCC[C@@H](C)Oc3ccc(NS(=O)(=O)c4ccc(Cl)cc4)cc3C(=O)N([C@H](C)CO)C[C@@H]2C)cc1,-17.6,-19.1
COc1ccc(S(=O)(=O)N(C)C[C@@H]2OCCCC[C@@H](C)Oc3ccc(NC(=O)CCC(F)(F)F)cc3C(=O)N([C@@H](C)CO)C[C@@H]2C)cc1,13.4,2.6
O=C(Nc1cccc(F)c1)N1CC(=O)N2[C@H](C1)[C@@H](c1ccc(C#CCC3CCCC3)cc1)[C@@H]2CO,?,.
O=C(Cc1ccncc1)NCC[C@H]1CC[C@H](NC(=O)Nc2cccc(F)c2)[C@@H](CO)O1,-0.8,4.8
O=C(Nc1cccc(F)c1)N1CC(=O)N2[C@@H](CO)[C@H](c3ccc(-c4ccc(F)cc4)cc3)[C@@H]2C1,?,.
O=C(C[C@@H]1CC[C@@H]2[C@H](COC[C@H](O)CN2Cc2ccccc2F)O1)NCc1ccccc1F,-16.7,-0.7
C[C@@H]1CN([C@@H](C)CO)C(=O)c2cc(-c3ccc(F)cc3)cnc2O[C@H]1CN(C)CC1CCCC1,?,.
O=C(C1CCCC1)N1CC(=O)N2[C@H](CO)[C@H](c3ccc(-c4cccnc4)cc3)[C@H]2C1,15.4,11.3
COc1ccc(S(=O)(=O)Nc2ccc3c(c2)CC(=O)N([C@@H](C)CO)C[C@@H](C)[C@H](CN(C)C(=O)NC2CCCCC2)O3)cc1,16.5,11.0
O=C(C[C@@H]1C=C[C@@H](NC(=O)C2CCOCC2)[C@H](CO)O1)Nc1ccccc1,-1.7,-3.4
CC(C)NC(=O)Nc1ccc2c(c1)CC(=O)N([C@H](C)CO)C[C@H](C)[C@@H](CN(C)S(C)(=O)=O)O2,7.7,4.6
O=C(c1ccc2c(c1)OCO2)N1CC[C@@H]2[C@H]1c1cc(-c3ccccc3)ccc1N[C@@H]2CO,4.9,1.5
C[C@@H](O)C#Cc1ccc([C@@H]2[C@@H](CO)N3CCCCN(C(=O)c4cccc(F)c4)C[C@H]23)cc1,15.1,5.2
CO[C@H]1CN(C)C(=O)c2cc(NC(=O)c3ccccc3F)ccc2OC[C@@H](C)N(CC2CCOCC2)C[C@H]1C,1.2,6.8
COc1ccc(-c2ccc([C@H]3[C@@H](CO)N4C(=O)CN(Cc5ccccc5)C[C@@H]34)cc2)cc1,14.1,11.0
C/C=C/c1ccc(C2[C@@H]3CN(Cc4cc(OC)cc(OC)c4)C[C@H]2N3)cc1 (stereo partly drawn),?,.
Cc1ccc(-c2ccc3c(c2)O[C@@H](CN(C)C(=O)CC2CC2)[C@@H](C)CN([C@H](C)CO)S3(=O)=O)cc1,-17.6,-22.4
COCC(=O)N1[C@H](CO)[C@H]2c3ccccc3N(C(=O)Nc3cc(F)ccc3F)C[C@H]21,7.6,7.5
C[C@@H]1CCCCO[C@@H](CN(C)Cc2ccc3c(c2)OCO3)[C@H](C)CN([C@@H](C)CO)C(=O)c2cc(NC(=O)CCCN(C)C)ccc2O1,8.0,-0.7
CC(C)NC(=O)Nc1ccc2c(c1)CC(=O)N([C@H](C)CO)C[C@@H](C)[C@H](CN(C)CC1CCCCC1)O2,-8.5,-5.7
CO[C@H]1CN(C)C(=O)c2ccc(NS(=O)(=O)c3ccc(C)cc3)cc2OC[C@@H](C)N(C)C[C@H]1C,-4.6,-2.6
COc1cccc(C#Cc2ccc([C@H]3[C@H]4CN(C(=O)c5ccccc5)CC(=O)N4[C@H]3CO)cc2)c1,?,.
COc1ccccc1NC(=O)N1CC(=O)N2[C@@H](CO)[C@@H](c3ccc(C#Cc4ccc(F)cc4)cc3)[C@@H]2C1,-31.2,-19.1
C[C@@H]1CN([C@@H](C)CO)C(=O)c2cc(NS(=O)(=O)c3cccs3)ccc2O[C@@H](C)CCCCO[C@H]1CN(C)Cc1ccccc1,-2.2,0.6
C[C@@H]1CN([C@@H](C)CO)C(=O)Cc2cc(NC(=O)Nc3cccc4ccccc34)ccc2O[C@@H]1CN(C)C(=O)Nc1cccc2ccccc12,20.3,12.5
C[C@@H]1CN([C@@H](C)CO)S(=O)(=O)c2ccc(/C=C/c3ccccc3)cc2O[C@H]1CN(C)C(=O)C1CC1,-25.8,-24.6
COc1ccc(NC(=O)N(C)C[C@H]2Oc3ccc(NS(=O)(=O)c4cn(C)cn4)cc3C(=O)N([C@H](C)CO)C[C@@H]2C)cc1,1.5,5.4
CCC(=O)Nc1ccc2c(c1)C(=O)N(C)[C@H]1CC[C@H](CC(=O)NCc3ccccc3)O[C@H]1CO2,3.5,3.4
C[C@@H](C(=O)N(C)C[C@@H]1OCc2ccccc2-c2c(n(C)c3ccccc23)C(=O)N([C@@H](C)CO)C[C@@H]1C)c1ccccc1,?,.
C[C@@H]1CN([C@@H](C)CO)S(=O)(=O)c2ccc(C3=CCCC3)cc2O[C@H]1CN(C)CC1CCCC1,-10.7,-2.7
CNC[C@H]1Oc2ncc(-c3cccc(F)c3)cc2C(=O)N([C@H](C)CO)C[C@H]1C,-12.2,-3.0
COc1ccc(NC(=O)Nc2ccc3c(c2)CC(=O)N([C@H](C)CO)C[C@@H](C)[C@@H](CN(C)S(C)(=O)=O)O3)cc1,6.9,6.4
CN(C)CCCNC(=O)[C@@H]1[C@@H](CO)[C@@H]2Cn3c(ccc(-c4ccccc4)c3=O)[C@H]1N2C(=O)CC1CC1,19.5,11.3

# Going on with the list.
SMILES,Vaccinia stage,Vaccinia stage Venus
C[C@H]1CN([C@@H](C)CO)C(=O)Cc2cc(NC(=O)Nc3ccc4c(c3)OCO4)ccc2O[C@@H]1CN(C)Cc1ccccc1,-8.6,-3.1
C/C=C/c1cnc2c(c1)C(=O)N([C@H](C)CO)C[C@@H](C)[C@H](CN(C)Cc1cncnc1)O2,15.5,9.5
CC(=O)N(C)C[C@H]1Oc2cc(-c3cccnc3)ccc2S(=O)(=O)N([C@@H](C)CO)C[C@H]1C,30.8,3.7
CC(C)C#Cc1ccc2c(c1)O[C@H](CN(C)CC1CCOCC1)[C@@H](C)CN([C@@H](C)CO)S2(=O)=O,?,.

# Another view of four compounds above.
Structure: O=C(NCC[C@@H]1CC[C@H](NC(=O)C2CCCCC2)[C@@H](CO)O1)c1ccc(F)cc1
  Vaccinia stage: 2.0; Vaccinia stage Venus: 8.8
Structure: C[C@H](CO)N1C[C@H](C)[C@H](CN(C)S(=O)(=O)c2ccccc2)Oc2ncc(C#Cc3ccc(C(F)(F)F)cc3)cc2C1=O
  Vaccinia stage: -11.6; Vaccinia stage Venus: -2.2
Structure: O=C(C1CCCC1)N1CC(=O)N2[C@H](CO)[C@H](c3ccc(-c4cccnc4)cc3)[C@H]2C1
  Vaccinia stage: 15.4; Vaccinia stage Venus: 11.3
Structure: O=C(Cc1ccncc1)NCC[C@H]1CC[C@H](NC(=O)Nc2cccc(F)c2)[C@@H](CO)O1
  Vaccinia stage: -0.8; Vaccinia stage Venus: 4.8
